# Assay outcomes as filed in PubChem BioAssay.
# KCNQ2 block = KCNQ2 channel blockers in CHO-K1 cells – cell-based, FluxOR thallium flux, B-score, primary screen (AID 2156). 20 min; active compounds read low; only compounds with negative scores are shown here; some inactives read as strong as hits. B-score at 10 µM. actives 1.1% (n = 310,000). O88943;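 active means fluorescence ratio B-score at most minus 3 library SDs, with starting brightness B-score within 2 library SDs, cut at about -5.5 in these data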
# Target sequence (O88943 whole entry, looked up): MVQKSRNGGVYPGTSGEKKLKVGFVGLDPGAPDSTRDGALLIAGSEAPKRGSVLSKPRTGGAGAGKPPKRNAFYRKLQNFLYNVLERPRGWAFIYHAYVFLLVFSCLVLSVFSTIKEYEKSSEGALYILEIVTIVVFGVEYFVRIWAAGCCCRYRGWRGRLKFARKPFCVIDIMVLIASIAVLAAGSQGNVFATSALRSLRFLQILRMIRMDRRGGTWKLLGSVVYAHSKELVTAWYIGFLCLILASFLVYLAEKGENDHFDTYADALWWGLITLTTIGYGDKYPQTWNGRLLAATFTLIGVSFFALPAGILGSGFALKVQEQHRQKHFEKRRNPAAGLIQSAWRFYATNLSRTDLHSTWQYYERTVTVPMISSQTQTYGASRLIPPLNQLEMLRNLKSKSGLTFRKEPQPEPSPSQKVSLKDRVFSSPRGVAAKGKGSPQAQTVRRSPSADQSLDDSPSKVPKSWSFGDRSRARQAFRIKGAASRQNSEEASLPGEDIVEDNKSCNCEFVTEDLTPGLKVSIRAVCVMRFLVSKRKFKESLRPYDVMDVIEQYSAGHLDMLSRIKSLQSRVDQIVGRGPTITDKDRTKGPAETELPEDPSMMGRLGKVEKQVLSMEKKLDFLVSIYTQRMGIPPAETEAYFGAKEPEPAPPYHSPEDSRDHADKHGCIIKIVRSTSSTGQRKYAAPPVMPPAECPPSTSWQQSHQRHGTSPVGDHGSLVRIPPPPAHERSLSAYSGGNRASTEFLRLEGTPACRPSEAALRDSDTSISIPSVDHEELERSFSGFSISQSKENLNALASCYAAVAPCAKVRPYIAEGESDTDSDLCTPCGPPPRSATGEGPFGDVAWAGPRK
# KCNQ2 block baseline = further read-out of KCNQ2 block, marked with its call; B-score; measured here: initial fluorescence intensity artifact check;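 brightness before thallium and not channel activity; 0 = typical well and far values either way flag optical interference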
# * hit, by the source's call; i = inactive. A portion of the library; rates above refer to the full screens.
SMILES,KCNQ2 block,KCNQ2 block baseline
O=C(COC(=O)c1cc(-c2ccccc2)nc2ccccc12)Nc1ccc2c(c1)OCO2,i,-0.08
COc1ccc(-c2[nH]c(-c3ccc(C)cc3)nc2SCC(=O)NC2CCCC2)cc1,i,0.78
Cc1cc(C)cc(OCC(=O)NC2CCCc3ccccc32)c1 (stereo not given),i,2.7
Cc1ccc(Cn2ccc(O)c(Cc3ccccc3)c2=O)cc1,i,0.99
Nc1cccc(S(=O)(=O)Nc2ccc(SC(F)F)cc2)c1,i,1.8
CCC1=NN2C(=N)/C(=C/c3ccc(OS(=O)(=O)c4ccc(C)cc4)c(OC)c3)C(=O)N=C2S1,i,-0.29
COc1ccc(C(C)=O)cc1CSc1nncn1-c1ccccc1,i,1.6
COc1cc(C)c(S(=O)(=O)NCc2cccnc2)cc1C,i,0.95
CC(CCc1ccccc1)NC(=O)CN(C)Cc1ccccc1F (stereo not given),i,-0.17
O=[N+]([O-])c1ccc(/C=C/c2ccncc2)cc1,i,3.4
Cc1cccc(-c2noc(CN(C(=O)/C=C/c3ccccc3Cl)C(C)C)n2)c1,i,-1.5
CCN1CCN(Cc2ccc(NC(=O)c3ccc(C)c(/C=C/c4cnc(Nc5cc(N6CCNCC6)nc(C)n5)cn4)c3)cc2C(F)(F)F)CC1,i,7.2
Cc1nn(CC(=O)OCC(=O)Nc2c(C(C)C)cccc2C(C)C)c(C)c1[N+](=O)[O-],i,1.8
Cn1c(=O)c2c(ncn2CCC(=O)N/N=C/c2ccccc2)n(C)c1=O,i,1
NS(=O)(=O)c1ccc(CCNC(=O)C(=O)C2C(=O)Nc3ccccc32)cc1 (stereo not given),i,2.1
CC1C(=O)NN=C1C(=O)N/N=C\C(Br)=C\c1ccccc1 (stereo not given),i,-0.39
Cc1ccc(NC(=O)C(C)OC(=O)CCNS(=O)(=O)c2ccc(C)cc2)cc1 (stereo not given),i,-0.18
Cc1ccccc1-n1c(=O)cc(N2CCN(C(=O)c3ccco3)CC2)[nH]c1=O,i,0.92
Cc1ccccc1CN1CCCC(C(=O)Nc2ccccc2Oc2cccnc2)C1 (stereo not given),i,1.6
CC(C)(CN=C1NS(=O)(=O)c2ccccc21)CNC(=O)CN1C(=O)c2ccccc2C1=O,i,0.5
Cc1ncc(CN2CCC(C(=O)Nc3ccc(Oc4cccnc4)cc3)CC2)cn1,i,-2
COc1ccc(NC(=O)c2cc(C)no2)cc1Cl,i,-0.34
CCC(=O)Nc1sc(C(=O)OC)c(C)c1C(=O)OC,i,0.05
Cc1cccc(C=Nc2ccc3c4c(cccc24)CC3)c1O,i,0.14
CN(C)CCCNC(=O)c1cc(C(=O)C2CCCCC2)c[nH]1,i,1.4
CC(NS(=O)(=O)c1ccc2c(c1)oc(=O)n2C)c1ccccc1 (stereo not given),i,-2.5
O=C(Nc1ccc(Cl)cc1)c1csc(-c2ccncc2)n1,i,0.5
COc1ccc(Cn2c(SCc3cc(C)ccc3C)nc3cc(OC)c(OC)cc3c2=N)cc1,i,-0.2
CCN1C=C(Cc2cccs2)C2=C(C1)C(c1cccs1)C(C#N)=C(N)O2 (stereo not given),i,-1.7
S=c1sc(SCCOc2ccccc2)nn1-c1ccccc1,i,-0.3
CCC(=O)NCCc1nc2cc(NC(=O)COc3ccccc3)ccc2n1C,i,1.2
Cc1cc(CNC(=O)COC(=O)c2ccc(Cl)c(N)c2)cc(C)c1O,i,1.3
CCN(CC)C(=O)Oc1c(Cl)cc(Cl)c2cccnc12,i,-0.16
CCOc1ccc(CNC(=O)CCCOc2cc(=O)n(C)c3ccccc23)cc1,i,-0.79
COc1ccc(N2CCCC2)c(NC(=O)COc2ccccc2Cl)c1,i,0.74
Cc1sc2nc(C)n(/N=C/c3ccccc3O)c(=O)c2c1C,i,1.2
CN(C)CC(O)COC(c1ccccc1)c1ccccc1 (stereo not given),i,0.65
CC1CCC(C(=O)NC(C(=O)NCCc2ccc(S(N)(=O)=O)cc2)C(C)C)CC1 (stereo not given),i,0.5
O=[N+]([O-])c1ccc(C(O)CNC(=S)Nc2ccccc2)cc1 (stereo not given),i,-0.06
O=C(CCNc1cc(Cl)cc(Cl)c1)c1cccs1,i,-0.46
CCCCC(=O)NC1(C(F)(F)F)NC(=O)N(C)C1=O (stereo not given),i,0.05
COc1ccc(C(=O)Nc2ccc(/C(C)=N/NC(=O)c3ccncc3)cc2)cc1,i,-0.98
Cn1c(SCC(=O)NCc2cccs2)nnc1-c1ccc(O)cc1,i,0.1
COc1cc(/C=N/NC(=O)c2cccc([N+](=O)[O-])c2)ccc1OC(=O)c1ccco1,i,-0.18
CN(Cc1ccccc1)C(=O)N1CCOCC1,i,0.23
CC(C)Oc1ccc(Cc2c(O)nc(NCCCN(C)C)[nH]c2=O)cc1,i,1.4
O=C(OCc1ccc(Br)cc1)c1cnc(Cl)c(Cl)c1,i,0.38
CCCCCCCC(=O)Nc1ccc(S(=O)(=O)Nc2nccs2)cc1,i,-0.73
O=C(Nc1ccccc1)c1ccc(-c2ccc(F)cc2)s1,i,-1.1
O=C(COc1cccc2cccnc12)N/N=C/c1cccn1-c1ccc(F)cc1,-7.2*,0.09*
COC(=O)CN(c1cc(Cl)ccc1OC)S(=O)(=O)c1ccc(C)cc1,i,-1.5
CCCCOc1ccc(/C=N/Nc2cc(N3CCOCC3)nc(C)n2)cc1,i,-0.14
Cc1ccc(CSc2nnc(-c3ccc(NS(=O)(=O)c4ccccc4)cc3)o2)cc1,i,0.94
CCOC(=O)Nc1csnn1,i,-1.5
O=C(CN1CCN(Cc2ccccc2Cl)C1=O)N1CCCCCC1,i,-1.1
O=C(CCCCCn1c(=S)[nH]c2ccc(Br)cc2c1=O)NCC1CCCO1 (stereo not given),i,0.81
CC1(C)CC(NC(=O)C23CCC(C)(C(=O)C2=O)C3(C)C)CC(C)(C)N1 (stereo not given),i,0.67
CCOc1cc(C(=O)Nc2ccc(N3CCN(C(C)=O)CC3)cc2)cc(OCC)c1OCC,i,-0.27
Cc1c(Cl)cccc1N(Cc1ccc(C(=O)O)cc1)S(=O)(=O)c1ccccc1,i,1.1
COc1cc(NC(=O)c2cc(-c3ccc4c(c3)OCO4)on2)cc(OC)c1OC,i,-1.5

# (further entries)
SMILES,KCNQ2 block,KCNQ2 block baseline
COc1ccc(OC)c(-c2csc(NC(=O)CSCc3c(C)noc3C)n2)c1,i,-0.61
CCCn1c(SCC(=O)NC2CCCCC2C)n[nH]c1=O (stereo not given),i,-1.9
CC(CC(=O)NCCc1ccc(S(N)(=O)=O)cc1)c1ccccc1 (stereo not given),i,1.3
CCN1CCN(C(=O)c2ccccc2N(Cc2ccccc2)S(=O)(=O)c2ccc(C)cc2)CC1,i,-0.01
CC1Cc2nc(SCC(=O)Nc3ccc4c(c3)OCO4)n(-c3ccc(F)cc3)c(=O)c2S1 (stereo not given),i,0.02
Cc1ccc(-n2nc(C)c(NS(=O)(=O)c3ccccc3)c2C)cc1C,i,-1.2
CN(C)CC/C=C1\c2cc(F)ccc2CSc2ccccc21,i,-0.01
O=C(Cc1ccccc1)Nc1cccc(-c2nc3ncccc3o2)c1,i,-0.19
O=C(CSc1ccc(-c2ccccc2)nn1)N1CCCc2ccccc21,i,0.68
COc1ccc(OC)c(N(CC(=O)N2CCCC2)S(=O)(=O)c2ccc(OC)c(OC)c2)c1,i,-0.79
COc1ccc(OC)c(C2NC(=O)c3sc(=S)n(-c4ccccc4)c3N2)c1 (stereo not given),i,-2
Cc1cccc(NC2=C(NCCO)C(=O)c3ccccc3C2=O)c1,i,0.73
O=C1c2ccccc2C(=O)C2OC12 (stereo not given),i,-1.8
CCN1C(=O)N(c2ccc(C(C)=O)cc2)S(=O)(=O)c2ccccc21,i,-0.55
CC(COc1ccc(C(C)C)cc1)NC(=O)c1ccc(Br)o1 (stereo not given),i,-0.32
CCCCN1C(=O)CCC(C(=O)O)C1c1ccc(OC)cc1 (stereo not given),i,1.2
COc1cccc(NC(=S)N(CCN(C)C)Cc2cccs2)c1,i,-1.1
COc1ccc(-c2sc(Nc3ccccc3)n[n+]2-c2ccc(F)cc2)c(C)c1C,i,-1.4
O=C(CN1C(=O)c2ccccc2S1(=O)=O)NCCSCc1cccc(Cl)c1,i,-1.5
Cc1ccccc1N/C(SCc1ccc(Cl)cc1)=C(/C#N)C(=O)NCc1ccco1,-7*,0.87*

# An excerpt of these results, as tab-separated lines.
Structure	KCNQ2 block	KCNQ2 block baseline
Cc1ccc(-n2nc(C)c(NS(=O)(=O)c3ccccc3)c2C)cc1C	i	-1.2
CN(C)CC/C=C1\c2cc(F)ccc2CSc2ccccc21	i	-0.01
O=C(Cc1ccccc1)Nc1cccc(-c2nc3ncccc3o2)c1	i	-0.19
O=C(CSc1ccc(-c2ccccc2)nn1)N1CCCc2ccccc21	i	0.68
COc1ccc(OC)c(N(CC(=O)N2CCCC2)S(=O)(=O)c2ccc(OC)c(OC)c2)c1	i	-0.79
COc1ccc(OC)c(C2NC(=O)c3sc(=S)n(-c4ccccc4)c3N2)c1 (stereo not given)	i	-2
Cc1cccc(NC2=C(NCCO)C(=O)c3ccccc3C2=O)c1	i	0.73

# (list continues)
SMILES,KCNQ2 block,KCNQ2 block baseline
CCOC(=O)C1CCN(C(=O)c2cc3c(C)cc(C)cc3[nH]2)CC1,i,0.93
COc1ccc(C(=O)NC(=S)N2CCNC(=O)C2CC(=O)OC(C)C)cc1 (stereo not given),i,-0.97
O=C1NC(=O)/C(=C/C(=O)N2CCOCC2)S1,i,-0.31
CC(=O)[C@H]1[C@H](CCc2ccccc2)NC(=O)N(Cc2ccccc2)[C@@H]1C,i,0.12
CC1(C)CC(=O)c2cc(C(=O)O)c(=O)n(-c3ccccc3)c2C1,i,0.16
COc1ccccc1/C=N/NC(=O)c1ccc(-c2ccccc2)cc1,i,-1.5
O=C(CNC(=S)N(CCCN1CCOCC1)Cc1cccs1)NCCCN1CCOCC1,i,0.01
OCC(CO)(CO)NCC(O)CN1c2ccccc2Sc2ccccc21 (stereo not given),i,-0.87
CCOC(=O)CN1C(=O)C(O)(c2c(C)[nH]c3ccccc23)c2ccccc21 (stereo not given),i,0.99
CCCc1nc2cc3c(cc2[nH]1)n(C)c(=O)n3C,i,1.4
CCC(=O)NC(c1cccs1)c1cc(Cl)c2cccnc2c1O (stereo not given),i,2.6
CC1CN(Cc2csc(-c3ccc(Cl)cc3)n2)CC(C)O1 (stereo not given),i,0.68
CC(NC(=O)C(=O)NN=C1CCC(C(C)(C)C)CC1)c1ccccc1 (stereo not given),i,-0.54
Cc1cc(C)c2nc(N3CCCC(C(=O)NCCCN4CCOCC4)C3)sc2c1 (stereo not given),i,1
CC1c2ccsc2CCN1C(=O)NC(=O)c1ccc(Cl)cc1 (stereo not given),i,-1.2
Cc1ccc(NC(=O)CCc2nc(-c3cccs3)no2)c(Br)c1,i,1.7
C=CCSc1ncccc1C(=O)O,i,-0.08
COC(=O)c1ccc(NCC(=O)Nc2cc(C)cc(C)c2)cc1,i,0.59
Cc1cccc(NC(=O)c2nc[nH]c2C(=O)N[C@@H](Cc2ccccc2)C(=O)OCc2ccccc2)c1,i,1.9
NS(=O)(=O)c1ccc(NC(=O)COC(=O)COc2ccc3ccccc3c2)cc1,i,0.1
O=C(COC(=O)c1oc2ccccc2c1CSc1ccc(Cl)cc1)NC1CCCC1,-6.4*,-1.3*
COc1ccc2nc(C)cc(SCC(=O)N/N=C/c3c(OC)ccc4ccccc34)c2c1,i,0.24
COc1ccc(C)cc1S(=O)(=O)n1nc(C)cc1C,i,-0.34
NS(=O)(=O)c1ccc2nc(NC(=O)c3ccc(Br)o3)sc2c1,i,1.3
COc1cc(CNc2ccc3[nH]c(=O)[nH]c3c2)ccc1OCc1ccccc1Cl,i,1.8
Cn1c(=O)c2c(ncn2CC(COCc2ccc(Cl)cc2)OCc2ccc(Cl)cc2)n(C)c1=O (stereo not given),i,1.2
Cc1ccccc1Nc1c(-c2cccnc2)nc2cccc(C)n12,i,-0.64
CCOc1cc(CNCCN(C)C)c(Cl)cc1OCC(=O)NCCc1ccccc1,i,1.3
Cc1ccc(-n2c(=O)[nH]cc(C(=O)Nc3ccc4c(c3)OCCO4)c2=O)cc1C,i,1.5
CCOCCc1nnc(NC(=O)C(C)Oc2ccccc2)s1 (stereo not given),i,1.5
Cc1ccc(C(=O)CSc2ncnc3sc4c(c23)CCC(C)C4)cc1 (stereo not given),i,0.84
COc1cc(-c2nc3ccccc3nc2-c2ccc(O)c(OC)c2)ccc1O,i,-1.2
Cc1ccc(P(=Nc2ccccc2)(N2CCOCC2)N2CCOCC2)o1,i,0.63
CC1CCN(c2ccc(C(=O)NCc3cccs3)cn2)CC1,i,2
Cc1ccc(OCc2ccc(C(=O)Nc3ccc(S(N)(=O)=O)cc3)o2)cc1,i,0.06
COC(=O)c1oc2ccc(Br)cc2c1-n1cccc1,i,1.2
Fc1ccc(N/N=C2/CC(c3ccccc3)Oc3ccccc32)c(F)c1 (stereo not given),i,-0.38
COc1cc(C(=S)N2CCOCC2)ccc1OS(=O)(=O)c1ccc(C)cc1,i,0.93
Cc1ccc(S(=O)(=O)NCC(=O)OC2CCOC2=O)cc1 (stereo not given),i,-0.75
Cc1cccc(N/N=C/c2ccncc2)c1,i,0.9
COc1ccccc1CNC(=O)COC(=O)c1ccccc1-c1ccccc1,i,-1.7

# Of the compounds above, these contain a furan ring, fused or not:
SMILES,KCNQ2 block,KCNQ2 block baseline
Cc1ccccc1-n1c(=O)cc(N2CCN(C(=O)c3ccco3)CC2)[nH]c1=O,i,0.92
COc1cc(/C=N/NC(=O)c2cccc([N+](=O)[O-])c2)ccc1OC(=O)c1ccco1,i,-0.18
CC(COc1ccc(C(C)C)cc1)NC(=O)c1ccc(Br)o1 (stereo not given),i,-0.32
Cc1ccccc1N/C(SCc1ccc(Cl)cc1)=C(/C#N)C(=O)NCc1ccco1,-7*,0.87*
O=C(COC(=O)c1oc2ccccc2c1CSc1ccc(Cl)cc1)NC1CCCC1,-6.4*,-1.3*
NS(=O)(=O)c1ccc2nc(NC(=O)c3ccc(Br)o3)sc2c1,i,1.3
Cc1ccc(P(=Nc2ccccc2)(N2CCOCC2)N2CCOCC2)o1,i,0.63
Cc1ccc(OCc2ccc(C(=O)Nc3ccc(S(N)(=O)=O)cc3)o2)cc1,i,0.06
COC(=O)c1oc2ccc(Br)cc2c1-n1cccc1,i,1.2
